Assay outcomes as filed in PubChem BioAssay.
A1 apoptosis 2 = A1 inhibitors via caspase activation, primary screen, cell-based, luminescence, HTS, two replicates | MEF A1-2A-BIM cells, caspase-Glo luminescence, 3 h; percent of clofoctol response, DMSO zero | caspase activation, % (no concentration beside the values) | AID 2465, 2010 | 24,000 tested, under 10 active; in the data active = caspase activation above about 5.9%;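 note: wells of about 30 µL received 50 nL stock; the first replicate is given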
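Evaluation: Caspase-3/7 activity from luminescence increase | Assay system: A1-2A-BIM mouse embryonic fibroblasts | Quantity: 2500 MEF cells/well | Medium: RPMI-1640 plus 10% FBS | Detection: Caspase-Glo 3/7 luminescence, 1 h at room temperature | Dosing: 50 nL compound per well, pinned | Timing: Cells settled overnight, compound exposure 3 h at 37 °C, 5% CO2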
* = called active by the depositor. A portion of the library; rates above refer to the full screens.

structure	A1 apoptosis 2
C[C@H]1CN([C@@H](C)CO)C(=O)c2cc(NS(=O)(=O)c3ccc(F)cc3)ccc2O[C@@H]1CN(C)C(=O)Nc1ccccc1	-1.8
C[C@H](CO)N1C[C@H](C)[C@H](CN(C)C(=O)c2ccncc2)OCCCC[C@H](C)Oc2ccc(NC(=O)c3ccncc3)cc2C1=O	-1.0
C[C@@H]1CCCCO[C@H](CN(C)C(=O)CCCN(C)C)[C@H](C)CN([C@@H](C)CO)C(=O)c2cc(NC(=O)Cc3ccccc3)ccc2O1	0.7
C[C@H]1CN([C@@H](C)CO)C(=O)CCCn2nncc2CO[C@@H]1CN(C)C(=O)c1cc(-c2ccccc2)on1	0.1
COc1ccc(NC(=O)Nc2cccc3c2O[C@@H](CN(C)C(=O)Nc2ccccc2)[C@H](C)CN([C@H](C)CO)C3=O)cc1	-0.1
CC(C)NC(=O)Nc1cccc2c1O[C@@H](CN(C)C)[C@@H](C)CN([C@H](C)CO)C2=O	1.0
C[C@H]1CN([C@@H](C)CO)C(=O)c2cc(NS(=O)(=O)c3ccccc3)ccc2O[C@@H]1CN(C)S(=O)(=O)c1ccccc1	0.9
C[C@H]1CCCCO[C@@H](CN(C)C(=O)Cc2ccccc2)[C@@H](C)CN([C@@H](C)CO)C(=O)c2cc(N(C)C)ccc2O1	-0.1

Remaining list, next part
structure	A1 apoptosis 2
Cc1ccc(S(=O)(=O)Nc2cccc3c2O[C@@H](CN(C)Cc2ccc(Cl)c(Cl)c2)[C@@H](C)CN([C@@H](C)CO)C3=O)cc1	0.2
CNC[C@@H]1Oc2ncc(C#CCN(C)C)cc2C(=O)N([C@H](C)CO)C[C@@H]1C	-0.7
COc1ccc(NC(=O)N(C)C[C@H]2Oc3ccc(NS(=O)(=O)c4cccs4)cc3C(=O)N([C@@H](C)CO)C[C@@H]2C)cc1	-0.4
C[C@@H]1CCCCO[C@H](CN(C)S(=O)(=O)c2ccccc2)[C@@H](C)CN([C@@H](C)CO)C(=O)c2cc(NS(=O)(=O)c3cn(C)cn3)ccc2O1	-0.7
C[C@@H]1CN([C@@H](C)CO)C(=O)c2cc(NC(=O)Nc3cccc4ccccc34)ccc2O[C@@H]1CN(C)S(=O)(=O)c1ccccc1	0.8
C[C@H](CO)N1C[C@H](C)[C@H](CN(C)C)Oc2ccc(NC(=O)Nc3ccc4c(c3)OCO4)cc2C1=O	0.2
C[C@@H]1CCCCO[C@H](CN(C)Cc2ccncc2)[C@H](C)CN([C@@H](C)CO)C(=O)c2cc(NS(C)(=O)=O)ccc2O1	0.5
C[C@@H]1CN([C@@H](C)CO)C(=O)Cc2cc(NS(C)(=O)=O)ccc2O[C@@H]1CN(C)S(=O)(=O)c1cccs1	-1.1

Carrying on:
structure	A1 apoptosis 2
C[C@H]1CN([C@@H](C)CO)C(=O)Cc2cc(NC(=O)Nc3ccc4c(c3)OCO4)ccc2O[C@H]1CN(C)CC1CCCCC1	-0.4
C[C@@H]1CCCCO[C@@H](CN(C)S(=O)(=O)c2cn(C)cn2)[C@@H](C)CN([C@@H](C)CO)C(=O)c2cc(NS(=O)(=O)c3cn(C)cn3)ccc2O1	-0.8
O=C(CCCCCC(=O)N/N=C/c1ccc(O)c2ccccc12)NO	-0.4
CNC[C@@H]1Oc2ccc(NC(=O)c3ccncc3)cc2CC(=O)N([C@@H](C)CO)C[C@H]1C	0.1
Cc1noc(C)c1S(=O)(=O)Nc1ccc2c(c1)C(=O)N([C@@H](C)CO)C[C@@H](C)[C@@H](CN(C)S(=O)(=O)c1ccccc1)O2	-0.8
C[C@@H]1CN([C@@H](C)CO)C(=O)Cc2cc(NS(=O)(=O)c3cn(C)cn3)ccc2O[C@@H]1CN(C)CC1CC1	-0.2
CNC[C@H]1OCCCC[C@H](C)Oc2ccc(NC(=O)Nc3ccc(F)cc3)cc2C(=O)N([C@H](C)CO)C[C@H]1C	1.1
O=C(CCCCCCC(=O)N/N=C/c1ccc(-n2ccnc2)cc1)NO	-0.8

Remaining list, next part:
structure	A1 apoptosis 2
C[C@@H]1CCCCO[C@@H](CN(C)Cc2ccc(C(=O)O)cc2)[C@H](C)CN([C@H](C)CO)C(=O)c2cc(NC(=O)CCCN(C)C)ccc2O1	1.0
CNC[C@@H]1OCCCC[C@H](C)Oc2ccc(NS(=O)(=O)c3ccc(Cl)cc3)cc2C(=O)N([C@@H](C)CO)C[C@@H]1C	-0.9
C[C@H]1CN([C@@H](C)CO)C(=O)Cc2cc(NS(C)(=O)=O)ccc2O[C@H]1CN(C)Cc1ccccc1	0.2
C[C@H](CO)N1C[C@H](C)[C@@H](CN(C)Cc2ccc(Cl)c(Cl)c2)Oc2ccc(NC(=O)Nc3ccc4c(c3)OCO4)cc2C1=O	-2.0
C[C@@H]1CCCCO[C@@H](CN(C)CC2CC2)[C@H](C)CN([C@H](C)CO)C(=O)c2cc(NC(=O)CCC(F)(F)F)ccc2O1	-0.8
C[C@H](CO)N1C[C@H](C)[C@H](CN(C)Cc2ccc(C(=O)O)cc2)OCCCC[C@H](C)Oc2ccc(NS(=O)(=O)c3ccc(F)cc3)cc2C1=O	-0.5
C[C@@H]1CN([C@@H](C)CO)C(=O)c2cc(NS(C)(=O)=O)ccc2O[C@@H](C)CCCCO[C@@H]1CN(C)S(=O)(=O)c1ccccc1	0.3
CNC[C@@H]1Oc2c(NC(=O)c3ccncc3)cccc2C(=O)N([C@@H](C)CO)C[C@H]1C	1.0

Later entries:
structure	A1 apoptosis 2
C[C@H](CO)N1C[C@H](C)[C@@H](CN(C)S(=O)(=O)c2ccc(F)cc2)OCCCC[C@H](C)Oc2ccc(NC(=O)Nc3ccc(C(F)(F)F)cc3)cc2C1=O	0.1
C[C@@H]1CCCCO[C@H](CN(C)C(=O)Nc2cccc3ccccc23)[C@H](C)CN([C@H](C)CO)C(=O)c2cc(NC(=O)Cc3ccccc3)ccc2O1	1.2
[N-]=[N+]=Nc1ccccc1C[C@@]1(C(=O)NCC(O)CO)N=C(c2ccc(OCCCO)cc2)O[C@@H]1c1ccccc1 (stereo not given in full)	-1.3
CC1=C(C/C=N/NC(=O)c2ccc(C(=O)NO)cc2)C(C)(C)CCC1	1.1
COc1ccc(Br)c(/C=N/NC(=O)c2ccccn2)c1	-10.3
C[C@@H]1CCCCO[C@@H](CN(C)CC2CCCCC2)[C@H](C)CN([C@H](C)CO)C(=O)c2cc(NC(=O)Nc3ccc(C(F)(F)F)cc3)ccc2O1	8.3*
COc1ccc(NC(=O)N(C)C[C@H]2OCCCC[C@@H](C)Oc3ccc(NC(=O)c4ccncc4)cc3C(=O)N([C@@H](C)CO)C[C@H]2C)cc1	-1.5
C[C@H](CO)N1C[C@H](C)[C@H](CN(C)S(=O)(=O)c2ccc(F)cc2)Oc2ccc(NS(=O)(=O)c3cccs3)cc2C1=O	-1.0

Entries listed so far with a COOH group (2):
structure	A1 apoptosis 2
C[C@@H]1CCCCO[C@@H](CN(C)Cc2ccc(C(=O)O)cc2)[C@H](C)CN([C@H](C)CO)C(=O)c2cc(NC(=O)CCCN(C)C)ccc2O1	1.0
C[C@H](CO)N1C[C@H](C)[C@H](CN(C)Cc2ccc(C(=O)O)cc2)OCCCC[C@H](C)Oc2ccc(NS(=O)(=O)c3ccc(F)cc3)cc2C1=O	-0.5

(listing goes on)
structure	A1 apoptosis 2
C[C@@H]1CN([C@@H](C)CO)C(=O)c2cc(NC(=O)Nc3cccc4ccccc34)ccc2O[C@@H]1CN(C)Cc1ccc(-c2ccccc2)cc1	-0.4
C[C@H](CO)N1C[C@H](C)[C@@H](CN(C)S(=O)(=O)c2cn(C)cn2)Oc2ccc(NS(=O)(=O)c3ccc(Cl)cc3)cc2C1=O	0.7
CNC[C@H]1OCCCC[C@@H](C)Oc2ccc(NS(=O)(=O)c3cccs3)cc2C(=O)N([C@@H](C)CO)C[C@H]1C	-0.8
C[C@H]1CN([C@@H](C)CO)C(=O)c2cccc(NC(=O)NC3CCCCC3)c2O[C@H]1CN(C)S(=O)(=O)c1cn(C)cn1	-0.3
C[C@@H]1CCCCO[C@@H](CN(C)C(=O)NC2CCCCC2)[C@H](C)CN([C@@H](C)CO)C(=O)c2cc(NC(=O)Nc3ccccc3)ccc2O1	-0.7
CC(C)NC(=O)Nc1ccc2c(c1)C(=O)N([C@H](C)CO)C[C@@H](C)[C@H](CN(C)Cc1ccc(-c3ccccc3)cc1)O2	1.1
CC(C)NC(=O)N(C)C[C@@H]1OCCCC[C@@H](C)Oc2ccc(NC(=O)c3ccccc3)cc2C(=O)N([C@@H](C)CO)C[C@@H]1C	1.0
COc1ccc(CN(C)C[C@@H]2Oc3c(NS(=O)(=O)c4ccc(C)cc4)cccc3C(=O)N([C@@H](C)CO)C[C@@H]2C)cc1	0.3

Continued.
structure	A1 apoptosis 2
COc1ccccc1CN(C)C[C@@H]1OCc2cnnn2CCCC(=O)N([C@H](C)CO)C[C@@H]1C	-0.3
Cc1ccc(S(=O)(=O)N(C)C[C@@H]2Oc3ccc(NC(=O)CCCCCC(=O)Nc4ccccc4N)cc3C(=O)N([C@@H](C)CO)C[C@H]2C)cc1	0.0
COc1ccc(NC(=O)Nc2cccc3c2O[C@H](CN(C)C(=O)Nc2cccc4ccccc24)[C@@H](C)CN([C@@H](C)CO)C3=O)cc1	-0.9
C[C@@H]1CCCCO[C@H](CN(C)C(=O)c2ccccc2)[C@H](C)CN([C@@H](C)CO)C(=O)c2cc(NC(=O)Nc3ccc(F)cc3)ccc2O1	1.3
C[C@H](CO)N1C[C@H](C)[C@H](CN(C)S(=O)(=O)c2cccs2)Oc2c(NC(=O)C3CCCCC3)cccc2C1=O	-0.7
Cc1noc(C)c1NC(=O)Nc1ccc2c(c1)C(=O)N([C@@H](C)CO)C[C@@H](C)[C@@H](CN(C)Cc1ccc(C(F)(F)F)cc1)OCCCC[C@@H](C)O2	-0.8
C[C@@H]1CCCCO[C@H](CN(C)Cc2ccc(C(=O)O)cc2)[C@@H](C)CN([C@@H](C)CO)C(=O)c2cc(N(C)C)ccc2O1	-1.0
COc1ccc(NC(=O)N(C)C[C@H]2Oc3ccc(NS(=O)(=O)c4ccc(C)cc4)cc3CC(=O)N([C@H](C)CO)C[C@H]2C)cc1	-0.5

(continued)
structure	A1 apoptosis 2
CNC[C@@H]1OCCCC[C@@H](C)Oc2ccc(NC(=O)Nc3ccccc3)cc2C(=O)N([C@H](C)CO)C[C@H]1C	-0.2
C[C@H](CO)N1C[C@H](C)[C@H](CN(C)C(=O)NC2CCCCC2)Oc2c(NS(=O)(=O)c3ccc(F)cc3)cccc2C1=O	2.5
C[C@H](CO)N1C[C@H](C)[C@H](CN(C)Cc2ccc(Oc3ccccc3)cc2)Oc2ccc(NS(C)(=O)=O)cc2CC1=O	-0.3
C[C@H](CO)N1C[C@H](C)[C@@H](CN(C)Cc2ccccc2)Oc2ccc(NS(=O)(=O)c3cccs3)cc2CC1=O	-0.4
C[C@H]1CN([C@@H](C)CO)C(=O)c2cccc(NC(=O)NC3CCCCC3)c2O[C@H]1CN(C)C	1.9
COC(=O)C1=C/c2ccccc2C(C2CC2)N(Cc2ccc(OC)cc2)/C=C\1C(=O)OC (stereo not given)	0.5
C[C@H]1CN([C@@H](C)CO)C(=O)c2cc(NS(=O)(=O)c3ccc(Cl)cc3)ccc2O[C@@H]1CN(C)C(=O)Nc1ccc(C(F)(F)F)cc1	-0.8
C[C@@H]1CN([C@H](C)CO)C(=O)Cc2cc(NS(C)(=O)=O)ccc2O[C@@H]1CN(C)Cc1ccc2c(c1)OCO2	1.1

In another format: results already given.
> C[C@H](CO)N1C[C@H](C)[C@H](CN(C)Cc2ccc(Oc3ccccc3)cc2)Oc2ccc(NS(C)(=O)=O)cc2CC1=O
  A1 apoptosis 2: -0.3
> C[C@H](CO)N1C[C@H](C)[C@@H](CN(C)Cc2ccccc2)Oc2ccc(NS(=O)(=O)c3cccs3)cc2CC1=O
  A1 apoptosis 2: -0.4
> C[C@H]1CN([C@@H](C)CO)C(=O)c2cccc(NC(=O)NC3CCCCC3)c2O[C@H]1CN(C)C
  A1 apoptosis 2: 1.9
> COC(=O)C1=C/c2ccccc2C(C2CC2)N(Cc2ccc(OC)cc2)/C=C\1C(=O)OC (stereo not given)
  A1 apoptosis 2: 0.5

Following part.
structure	A1 apoptosis 2
C[C@@H]1CN([C@@H](C)CO)C(=O)Cc2cc(NC(=O)c3ccncc3)ccc2O[C@H]1CN(C)Cc1ccc(-c2ccccc2)cc1	0.1
Cc1ccc(S(=O)(=O)N(C)C[C@@H]2Oc3ccc(NC(=O)Cn4cnnn4)cc3CC(=O)N([C@@H](C)CO)C[C@@H]2C)cc1	-1.3
C=CCN1C(=O)[C@]2(O[C@H](CCO)[C@@H]([Si](C)(C)c3ccc(OC)cc3)[C@@H]2C)c2cc(I)ccc21	9.0*
COc1ccc(NC(=O)N(C)C[C@@H]2Oc3ccc(NS(=O)(=O)c4ccccc4)cc3C(=O)N([C@H](C)CO)C[C@@H]2C)cc1	-1.7
CC(C)NC(=O)N(C)C[C@H]1Oc2ccc(NC(=O)Nc3cccc4ccccc34)cc2CC(=O)N([C@@H](C)CO)C[C@H]1C	-0.8
C[C@H](CO)N1C[C@H](C)[C@@H](CN(C)CC2CC2)Oc2c(NC(=O)c3cnccn3)cccc2C1=O	-1.1
C[C@H](CO)N1C[C@H](C)[C@@H](CN(C)Cc2ccc(Cl)c(Cl)c2)Oc2ccc(NS(C)(=O)=O)cc2C1=O	-0.4
